Screening results (PubChem BioAssay)
BJeLR lethal – kills HRASV12-expressing BJeLR cells; BJeLR (HRASV12) viability, CellTiter-Glo ATP luminescence, 48 h; reference of the scale not given here; inhibition, % (no concentration beside the values); actives 0.17% (n = 300,000); AID 1554;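 active means replicate mean above 50%; inconclusive means above 50% but judged a plate artefact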;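 further: 50 nL library stock added to about 25 µL; numbers are from one replicate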
Mtb hypoxia inh – reduces hypoxia-regulated biosensor signal in M. tuberculosis; M. tuberculosis hypoxia-regulated fluorescent reporter, fluorescence; fluorescence inhibition, % (concentration not given with the values); actives 0.1% (n = 300,000);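 active means 35 to 45% if threefold the growth effect, above 45% if 1.5-fold the growth effect; inactive means the rest, general growth blockers included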;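 further: wells of about 50 µL received 100 nL stock; 0% = vehicle wells and 100% = reference inhibitor wells; whole bacteria with a GFP reporter of the hypoxia response; strong numbers were not always called active; many hits fall short of the cut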
Bead autofluor – compound fluorescence in toxin protease inhibitor counterscreen; compound autofluorescence counterscreen, microsphere flow cytometry; stronger effect = higher value; fluorescence intensity (test concentration not listed); actives 3.1% (n = 360,000); AID 624483;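 active means at least 3 SD above the mean of all compounds, about 16000 in these data; inconclusive means too few beads counted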;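 further: 100 nL of 1 mM stock went into each well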
Sa RN4220 lethal – S. aureus RN4220 growth inhibition. OD600, 16 h. inhibition, % (no concentration beside the values). actives 0.33% (n = 330,000);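 active means z-score of -3 or lower and OD600 up to 0.18 on both plates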;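 further: plate controls were untreated cells for no effect and reference antibiotic for full effect; stock transfer was 100 nL into about 80 µL; one replicate is shown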
Sa ugtP lethal – compounds lethal to S. aureus RN4220 ugtP deletion mutant; OD600 growth, 16 h; some inactives read as strong as hits; growth inhibition, % (concentration not given with the values); actives 0.54% (n = 330,000);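 active means z-score under -3 and OD600 up to 0.15 on both plates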;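 further: plate controls were untreated wells for no effect and antibiotic for full effect; wells of about 80 µL received 100 nL stock; the first replicate is given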
PrP 5UTR inh – suppresses PrP 5' UTR mRNA reporter expression. cell-based PrP 5' UTR mRNA reporter, plate reader. inhibition, % (concentration not given with the values). actives 0.35% (n = 340,000). AID 488862;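 active means every replicate at 50% or more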;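 further: 0 = median of the neutral control wells; tested in H4 reporter cells; numbers are from one replicate; inactives centre near -14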
Mtb hypoxia inh growth – recorded beside Mtb hypoxia inh, whose call it bears; growth inhibition, %; measured here: M. tuberculosis growth (absorbance);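 0% = vehicle and 100% = reference antibiotic; read after six days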
The depositor's hits bear a star; & = joins results of further samples.

Screening COc1ccccc1OCCOc1ccccc1C=Nn1cnnc1 returned Mtb hypoxia inh 7, Sa RN4220 lethal 13, Sa ugtP lethal 5 and Mtb hypoxia inh growth 3.
For Cc1cc(C)c(C)c(S(=O)(=O)N2CCN(C)CC2)c1C the results were Mtb hypoxia inh 10, Bead autofluor 4272, Sa RN4220 lethal -1.1, Sa ugtP lethal 7, PrP 5UTR inh -31 and Mtb hypoxia inh growth 8.
For C=CCOc1ccc(/C=C/C(=O)OCC(=O)NNC(=O)c2ccccc2F)cc1 the results were Mtb hypoxia inh -21, Bead autofluor 3682, Sa RN4220 lethal 2.2, Sa ugtP lethal 23, PrP 5UTR inh -12 and Mtb hypoxia inh growth 10.
For N#Cc1cc(-c2ccccc2)oc1NC(=O)c1ccccc1 the results were BJeLR lethal -4, Bead autofluor 3277, Sa RN4220 lethal 10, Sa ugtP lethal -12 and PrP 5UTR inh -8.
CCCCOc1ccc(/C=C/C2=CC(C)(C)NC(=S)N2)cc1OCC was read as BJeLR lethal 0, Mtb hypoxia inh 12, Bead autofluor 3405, Sa RN4220 lethal 12, Sa ugtP lethal 9, PrP 5UTR inh -22 and Mtb hypoxia inh growth 3.
For Cn1ccnc1C(=O)c1ccc(S(=O)(=O)N2CCCC2)cc1 the results were BJeLR lethal 11, Mtb hypoxia inh 16, Bead autofluor 4529, Sa RN4220 lethal 1.6, Sa ugtP lethal 0, PrP 5UTR inh -9 and Mtb hypoxia inh growth 13.
Screening Cc1c(NC(=O)c2cccs2)cccc1-c1nc2ccccc2s1 returned BJeLR lethal -3, Mtb hypoxia inh 6, Bead autofluor 2476, Sa RN4220 lethal 10.0, Sa ugtP lethal -3, PrP 5UTR inh -21 and Mtb hypoxia inh growth 12.
`CC(=O)Nc1ccc(S(=O)(=O)NCCC(=O)N2CCN(c3ccccc3Cl)CC2)cc1` gave Mtb hypoxia inh 6, Bead autofluor 3077, Sa RN4220 lethal 2.6, Sa ugtP lethal 10, PrP 5UTR inh -19 and Mtb hypoxia inh growth 5.
`Nc1nc(N2CCN(c3ccccn3)CC2)nc2ccccc12` gave BJeLR lethal 0, Mtb hypoxia inh 0, Bead autofluor 4153, Sa RN4220 lethal 3.8, Sa ugtP lethal 15 and Mtb hypoxia inh growth -12.
`CCC(C)(C)c1nnc(NC(=O)C2CC(=O)N(CCc3ccc(F)cc3)C2)s1` (centres undefined) gave BJeLR lethal -9, Mtb hypoxia inh 16, Bead autofluor 3935, Sa RN4220 lethal 10, Sa ugtP lethal 5, PrP 5UTR inh -18 and Mtb hypoxia inh growth 0.
For CN1CCC(OC(=O)Cc2ccc(Cl)cc2)CC1 the results were BJeLR lethal -1, Mtb hypoxia inh -2, Bead autofluor 2194, Sa RN4220 lethal 0.4, Sa ugtP lethal 5, PrP 5UTR inh -45 and Mtb hypoxia inh growth 10.
`N#CC(N=Nc1ccccc1O)=NNc1ccccc1O` gave Mtb hypoxia inh 11, Sa RN4220 lethal 13, Sa ugtP lethal -14 and Mtb hypoxia inh growth 21.
For CC(=O)Nc1ccc(S(=O)(=O)N2CCC(c3nc4ccc(C)cc4[nH]3)CC2)cc1 the results were BJeLR lethal 8, Mtb hypoxia inh 9, Bead autofluor 24362*, Sa RN4220 lethal 3.7, Sa ugtP lethal -6, PrP 5UTR inh -31 and Mtb hypoxia inh growth 6.
For Cc1ccc(S(=O)(=O)N(CC(=O)N2CCc3ccccc3C2)c2cccc(Cl)c2)cc1 the results were BJeLR lethal -2, Bead autofluor 2460, Sa RN4220 lethal 3.3, Sa ugtP lethal 6 and PrP 5UTR inh -22.
`COc1ccccc1NC(=O)C(C#N)=Cc1c(C)nn(-c2ccc(F)cc2)c1Cl` gave Mtb hypoxia inh -2, Sa RN4220 lethal 15, Sa ugtP lethal -6 and Mtb hypoxia inh growth 3.
O=C(Cc1cccs1)NN=C/C=C/c1ccccc1[N+](=O)[O-] was read as Mtb hypoxia inh 3, Sa RN4220 lethal 0.4, Sa ugtP lethal 4 and Mtb hypoxia inh growth 3.
Screening O=C(NCc1ccccc1)C1=CC(c2coc3ccccc3c2=O)CC(OCCCCO)O1 (centres undefined) returned Mtb hypoxia inh 15&12, Sa RN4220 lethal 3.9&1.6, Sa ugtP lethal 2&2 and Mtb hypoxia inh growth 6&16.
Screening COc1cccc(N2CCN(C(=S)Nc3cc(C)cc(C)c3)CC2)c1 returned BJeLR lethal 6, Mtb hypoxia inh -1, Bead autofluor 3471, Sa RN4220 lethal -0.7, Sa ugtP lethal 3, PrP 5UTR inh -44 and Mtb hypoxia inh growth -3.
`COc1ccc(OCCSc2ncc(CO)n2C)cc1` gave BJeLR lethal 4, Mtb hypoxia inh 1, Bead autofluor 3574, Sa RN4220 lethal 3.3, Sa ugtP lethal 8 and Mtb hypoxia inh growth 12.
Screening CN1CCC(N(C)S(=O)(=O)c2ccc(NC(=O)c3ccc(S(=O)(=O)N(C)C)cc3)cc2)CC1 returned Mtb hypoxia inh 12, Bead autofluor 2948, Sa RN4220 lethal 1.4, Sa ugtP lethal 4, PrP 5UTR inh -14 and Mtb hypoxia inh growth 8.
`O=C(Nc1ccc(F)cc1)c1ccc2nc[nH]c2c1` gave BJeLR lethal 2, Mtb hypoxia inh 5, Bead autofluor 2217, Sa RN4220 lethal -4.6, Sa ugtP lethal 0, PrP 5UTR inh -18 and Mtb hypoxia inh growth 10.
For CC(C)CN1CCN(Cc2ccc(C#CC(C)(C)O)cc2)CC1CCO (centres undefined) the results were BJeLR lethal 5, Mtb hypoxia inh 15, Bead autofluor 4249, Sa RN4220 lethal 5.0, Sa ugtP lethal 1, PrP 5UTR inh -18 and Mtb hypoxia inh growth 14.
CN1C(=O)S/C(=C\c2ccccc2OCc2ccc(C(=O)O)cc2)C1=O was read as BJeLR lethal 2, Bead autofluor 2193 and PrP 5UTR inh -56.
COc1ccccc1N1CCN(C(=O)c2oc3cc(C)cc(C)c3c2C)CC1 was read as BJeLR lethal -11, Mtb hypoxia inh 1, Bead autofluor inconclusive, Sa RN4220 lethal 5.4, Sa ugtP lethal -21, PrP 5UTR inh -26 and Mtb hypoxia inh growth 8.
Cc1ccc(NC(=O)C2CCN(S(=O)(=O)c3ccc4c(c3)NC(=O)C(C)S4)CC2)c(C)c1 (centres undefined) was read as BJeLR lethal 4, Mtb hypoxia inh 6, Bead autofluor 5615, Sa RN4220 lethal -0.9, Sa ugtP lethal 4, PrP 5UTR inh -14 and Mtb hypoxia inh growth 14.
C[C@@H]1CC2C3CC=C4C[C@@H](O)CC[C@]4(C)C3CC[C@]2(C)[C@H]1O (some centres undefined) was read as Mtb hypoxia inh 7, Bead autofluor 3743, Sa RN4220 lethal 3.7, Sa ugtP lethal 31, PrP 5UTR inh 0 and Mtb hypoxia inh growth -2.
For Cc1cc(C)n2cc(COc3ccccc3)nc2n1 the results were BJeLR lethal 3, Mtb hypoxia inh 8, Bead autofluor 2442, Sa RN4220 lethal 2.0, Sa ugtP lethal 3, PrP 5UTR inh -4 and Mtb hypoxia inh growth 8.
`COc1ccc(S(=O)(=O)N2CCC(C(=O)Nc3cccc(Cl)c3)CC2)cc1OC` gave BJeLR lethal 10, Mtb hypoxia inh 7, Bead autofluor 8860, Sa RN4220 lethal -2.5, Sa ugtP lethal 11, PrP 5UTR inh -3 and Mtb hypoxia inh growth 4.
Screening COc1cccc(NC(=O)c2cccs2)c1 returned BJeLR lethal 1, Mtb hypoxia inh 6, Bead autofluor 11614, Sa RN4220 lethal 2.1, Sa ugtP lethal 1, PrP 5UTR inh -72 and Mtb hypoxia inh growth 6.
For Cc1onc(-c2ccccc2)c1C(=O)O/N=C(\N)c1ccc([N+](=O)[O-])o1 the results were BJeLR lethal -6, Bead autofluor 4247 and PrP 5UTR inh -15.
Screening COc1ccc(/C=N/NC(=O)c2ccc[nH]2)cc1 returned BJeLR lethal 3, Bead autofluor 4060 and PrP 5UTR inh -57.
For COC(=O)C1C(=O)C2=C(CC1C)NC(C)=C(C(=O)OC(C)C)C2c1ccc(OC)c(O)c1 (centres undefined) the results were BJeLR lethal -4, Mtb hypoxia inh 0, Bead autofluor 22658*, Sa RN4220 lethal 1.3, Sa ugtP lethal 0, PrP 5UTR inh -14 and Mtb hypoxia inh growth -5.
For O=C(Nc1cccc(S(=O)(=O)N2CCCC2)c1)c1ccc2c(c1)OCO2 the results were BJeLR lethal 7, Mtb hypoxia inh 9, Bead autofluor 2162, Sa RN4220 lethal -0.1, Sa ugtP lethal 9, PrP 5UTR inh -11 and Mtb hypoxia inh growth 11.
Screening CSc1ccccc1NC(=O)CCn1c(=O)oc2ccccc21 returned BJeLR lethal 5, Mtb hypoxia inh 7, Bead autofluor 5736, Sa RN4220 lethal 5.1, Sa ugtP lethal 5, PrP 5UTR inh -6 and Mtb hypoxia inh growth 13.
For CCN(CC)c1nc(SCC(=O)O)nc(N(CC)CC)n1 the results were BJeLR lethal 5, Mtb hypoxia inh -7, Bead autofluor 6203, Sa RN4220 lethal 5.4, Sa ugtP lethal -8, PrP 5UTR inh -14 and Mtb hypoxia inh growth 4.
`Cc1c(O)c(S(=O)c2ccccc2)c(=O)n(-c2ccccc2)c1-c1ccccc1` (centres undefined) gave BJeLR lethal 0, Mtb hypoxia inh 11, Bead autofluor 2242, Sa RN4220 lethal 32, Sa ugtP lethal -1, PrP 5UTR inh 13 and Mtb hypoxia inh growth -4.
For Cc1ccc(S(=O)(=O)N2CCCCC2)cc1C(=O)OCC(=O)NC(=O)NC12CC3CC(CC(C3)C1)C2 the results were BJeLR lethal 5, Mtb hypoxia inh 2, Bead autofluor 2261, Sa RN4220 lethal 2.3, Sa ugtP lethal -4, PrP 5UTR inh -19 and Mtb hypoxia inh growth 5.
Screening CCCS(=O)(=O)N1CCC(C(=O)NCCCN(C)Cc2ccccc2)CC1 returned BJeLR lethal -9, Mtb hypoxia inh 18, Bead autofluor 2732, Sa RN4220 lethal -7.1, Sa ugtP lethal 5, PrP 5UTR inh -9 and Mtb hypoxia inh growth 6.
Cc1cccc(NC(=O)Cn2nnc(C(=O)NCc3cccs3)c2N)c1C was read as BJeLR lethal 7, Mtb hypoxia inh 4, Bead autofluor 3200, Sa RN4220 lethal 7.1, Sa ugtP lethal 4, PrP 5UTR inh 1 and Mtb hypoxia inh growth -1.
Screening COc1ccc(CCNC(=O)CCN2C(=O)C(C)Oc3ccc(C)cc32)cc1OC (centres undefined) returned BJeLR lethal -1, Mtb hypoxia inh 1, Bead autofluor 9331, Sa RN4220 lethal 1.4, Sa ugtP lethal -8, PrP 5UTR inh -6 and Mtb hypoxia inh growth 4.
For CNCc1ccccc1OCc1ccc(F)cc1 the results were BJeLR lethal 4, Mtb hypoxia inh 6, Bead autofluor 2601, Sa RN4220 lethal 0.2, Sa ugtP lethal 2, PrP 5UTR inh -19 and Mtb hypoxia inh growth -9.
COC(=O)C1=C(c2cc3ccccc3o2)C[C@@H]2CC[C@H]1N2C(=O)N1CCCC1 was read as BJeLR lethal -15, Bead autofluor 3499 and PrP 5UTR inh -20.
For CCn1c(Cc2ccccc2)nnc1SCC(=O)Nc1ccc(S(N)(=O)=O)cc1 the results were BJeLR lethal 4, Mtb hypoxia inh 12, Bead autofluor 7298, Sa RN4220 lethal 4.6, Sa ugtP lethal 6, PrP 5UTR inh -12 and Mtb hypoxia inh growth 15.
